AF4-AF9 inh – inhibitors of human MLL-AF4/AF9 interaction; AlphaScreen, biotin-AF4 peptide binding to FLAG-AF9; inhibition, % at 10 µM; 350,000 compounds, 0.47% hits; AID 651704;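 active = every replicate reaching a set inhibition limit, whatever the replicate mean, cut at about 25% in these data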;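 note: 0% = plate neutral control median and 100% = total signal loss; the record names both 10 and 1 µM as test concentration; the first replicate is given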
Target sequence (P42568 whole entry, looked up): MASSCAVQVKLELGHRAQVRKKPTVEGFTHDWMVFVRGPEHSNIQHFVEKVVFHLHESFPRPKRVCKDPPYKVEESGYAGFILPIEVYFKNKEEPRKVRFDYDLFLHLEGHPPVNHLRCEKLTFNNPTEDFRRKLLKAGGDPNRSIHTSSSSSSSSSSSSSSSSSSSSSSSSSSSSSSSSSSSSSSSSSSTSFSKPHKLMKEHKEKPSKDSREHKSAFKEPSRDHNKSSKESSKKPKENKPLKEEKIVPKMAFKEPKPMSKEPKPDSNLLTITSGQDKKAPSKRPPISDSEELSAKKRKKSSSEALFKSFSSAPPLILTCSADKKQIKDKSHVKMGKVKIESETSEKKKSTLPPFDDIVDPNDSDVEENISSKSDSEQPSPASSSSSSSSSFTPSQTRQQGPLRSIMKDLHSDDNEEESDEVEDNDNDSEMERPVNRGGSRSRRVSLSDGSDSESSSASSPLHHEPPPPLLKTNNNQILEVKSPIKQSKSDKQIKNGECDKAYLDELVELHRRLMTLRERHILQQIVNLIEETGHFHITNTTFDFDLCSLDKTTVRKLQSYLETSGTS
Ecoli rRNA inh – inhibits bacterial ribosomal RNA function over humanized ribosomes. E. coli WT GFP vs humanized-ribosome RFP mutants, fluorescence, 24 h; stronger effect = lower value; DMSO median 0, no signal -100. GFP signal change (wild-type ribosome), % (concentration not given with the values). 350,000 compounds, 1.6% hits;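 active = significant combined selectivity score with lowered wild-type GFP, culture density cut under 30%, mutant RFP and density less affected; inactive = any of these conditions unmet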; note: one replicate is shown; some compounds called inactive have numbers as strong as hits
Ecoli rRNA inh OD600 – also measured in Ecoli rRNA inh; calls as there; OD600 change, %; measured here: OD600 growth;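 optical density of the mix in the first replicate; 0 = DMSO median and -100 = no signal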
Ecoli rRNA inh RFP – recorded beside Ecoli rRNA inh, whose call it bears; RFP signal change, %; measured here: RFP humanized mutant strains;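 first replicate; 0 = DMSO median and -100 = no signal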
* = called active by the depositor; & = joins results of further samples. The list is partial (hit frequency here may not be typical).

Results follow in this order: AF4-AF9 inh, Ecoli rRNA inh, Ecoli rRNA inh OD600, Ecoli rRNA inh RFP
C[C@H](CO)N1C[C@H](C)[C@H](CN(C)Cc2ccc(C(=O)Nc3ccccc3N)cc2)Oc2ccc(NS(=O)(=O)c3cn(C)cn3)cc2C1=O
 : 3.2, 3, 6, 0.8
CC(=O)N1CCCCN2[C@H](C1)[C@@H](c1ccc(Br)cc1)[C@@H]2CO
 : -2.6, 1, 3, -2.6
C[C@@H]1CN([C@@H](C)CO)C(=O)c2cc(NC(=O)NC3CCCCC3)ccc2O[C@H]1CN(C)Cc1ccc(C(=O)Nc2ccccc2N)cc1
 : -0.7, -4, 2, 0.7
CO[C@H]1CN(C)C(=O)c2cc(NS(=O)(=O)c3ccc(C)cc3)ccc2OC[C@H](C)N(C(=O)NC(C)C)C[C@@H]1C
 : 0.8, 4, 4, -0.8
CN1C(=O)c2cc(NC(=O)C3CCCCC3)ccc2OC[C@H]2O[C@@H](CC(=O)NCCc3ccncc3)CC[C@H]21
 : -1.1, -4, 6, -1.2
C[C@@H]1CN([C@@H](C)CO)C(=O)c2cccc(NC(=O)C3CCCCC3)c2O[C@H]1CN(C)Cc1ccc(C(=O)O)cc1
 : -4.2, 4, 7, 0.4
COCC(=O)Nc1ccc2c(c1)OC[C@H](C)N(Cc1ccccc1)C[C@H](C)[C@@H](OC)CN(C)C2=O
 : 3.8, -3, -2, 1.1
O=C(C[C@H]1CC[C@@H](NC(=O)NC2CCCC2)[C@@H](CO)O1)NCc1ccc(F)cc1
 : -1.0, 1, -5, -0.1
O=C(C[C@H]1C=C[C@H](NC(=O)NC2CCCC2)[C@@H](CO)O1)NCc1ccc(F)cc1
 : -1.2, -1, -2, -0.2
O=C(C[C@@H]1C=C[C@H](NC(=O)C2CCC2)[C@@H](CO)O1)NC1CCC1
 : -3.6, 2, 1, 0.1
C[C@H](CO)N1C[C@H](C)[C@@H](CN(C)Cc2ccccc2)Oc2c(NC(=O)C3CCOCC3)cccc2C1=O
 : 0.4, 0, 0, 1.6
CN(C)C(=O)c1ccc(-c2ccc([C@@H]3[C@H](CO)N4C(=O)CN(C(=O)C5CCCC5)C[C@@H]34)cc2)cc1
 : -4.0, 1, 18, 0.4
O=C(C[C@@H]1CC[C@@H]2[C@H](COC[C@H](O)CN2C(=O)Nc2ccc(Cl)c(Cl)c2)O1)NCc1ccc(F)cc1
 : 0.7, -60, -78, -17
Cc1ccccc1-c1cccc([C@@H]2C[C@H]3[C@H](CON3C)CN2C(=O)CCc2ccccc2)c1
 : 6.1, -25, -40, -3.8
C[C@H](CO)N1C[C@H](C)[C@@H](CN(C)Cc2ccc(Cl)c(Cl)c2)Oc2ccc(NS(=O)(=O)c3cccs3)cc2C1=O
 : 0.9, -9, -39, 2.4
CCCC#Cc1ccc([C@@H]2[C@@H](CO)N3CCCCN(S(=O)(=O)c4ccccc4C)C[C@@H]23)cc1
 : -6.4, 5, 14, 4.2
C[C@H]1CN([C@@H](C)CO)C(=O)c2cc(NC(=O)Cc3cn(C)c4ccccc34)ccc2O[C@@H]1CN(C)Cc1ccc(C(F)(F)F)cc1
 : 4.2, 1, -1, 0.6
COc1ccc(S(=O)(=O)N(C)C[C@H]2Oc3c(cccc3N(C)C)C(=O)N([C@@H](C)CO)C[C@H]2C)cc1
 : -1.9, -2, 4, 0.5
C[C@H](CO)N1C[C@H](C)[C@@H](CN(C)Cc2ccc(C(=O)O)cc2)Oc2ccc(NC(=O)Cc3cn(C)c4ccccc34)cc2C1=O
 : 0.5, 3, -1, -1.3
C[C@H](CO)N1C[C@H](C)[C@H](CN(C)C(=O)C2CCOCC2)Oc2ncc(C#CCc3ccccc3)cc2C1=O
 : -0.6, 0, 4, -1.1
Cc1ccc(CNc2nc(NCc3ccccc3)nc3ccsc23)c(C)c1
 : 3.6, -50, -75, -16
C[C@@H]1CN([C@H](C)CO)C(=O)Cc2cc(NC(=O)C3CC3)ccc2O[C@H]1CN(C)Cc1ccc(Oc2ccccc2)cc1
 : 4.9, -5, -22, 6.0
CO[C@H]1CN(C)C(=O)c2cc(NS(=O)(=O)c3ccc(C)cc3)ccc2OC[C@@H](C)N(C)C[C@@H]1C
 : -1.0, 3, 0, 2.7
COc1cc(C(=O)NCCNC(=O)c2ccco2)cc(OC)c1OC
 : 0.9, -13, -14, 9.9
C[C@@H]1CN([C@@H](C)CO)C(=O)c2c(c3ccccc3n2C)-c2ccccc2CO[C@@H]1CN(C)S(=O)(=O)c1ccc(Cl)cc1
 : 8.1, 2, 8, -2.9
COc1ccc(NC(=O)N(C)C[C@H]2Oc3ccc(NC(=O)CCCCCC(=O)Nc4ccccc4N)cc3C(=O)N([C@@H](C)CO)C[C@H]2C)cc1
 : -3.9, 2, 8, 2.3
COc1ccc(-c2ccc(C(=O)Nc3cccc(Oc4ccccc4)c3)c3occc23)c(C)c1
 : -7.0, 6, 23, 0.2
N#C[C@H]1[C@@H](c2ccc(C#Cc3ccccc3F)cc2)[C@@H](CO)N1C(=O)C1CCCCC1
 : 5.0, 1, -1, -2.2
Cc1cccc(C)c1NC(=O)c1ccc2sc([C@@H]3O[C@H](CO)[C@H](O)[C@H](O)[C@H]3O)nc2c1
 : -4.9, 6, 16, -1.5
Cc1ccsc1C(=O)N1CCC1(C)C(=O)NS(=O)(=O)c1ccccc1C(F)(F)F (configuration not stated)
 : -4.4, 10, 17, -1.2

Shown with each value named: entries from further up.
CCCC#Cc1ccc([C@@H]2[C@@H](CO)N3CCCCN(S(=O)(=O)c4ccccc4C)C[C@@H]23)cc1
- AF4-AF9 inh = -6.4
- Ecoli rRNA inh = 5
- Ecoli rRNA inh OD600 = 14
- Ecoli rRNA inh RFP = 4.2

C[C@H]1CN([C@@H](C)CO)C(=O)c2cc(NC(=O)Cc3cn(C)c4ccccc34)ccc2O[C@@H]1CN(C)Cc1ccc(C(F)(F)F)cc1
- AF4-AF9 inh = 4.2
- Ecoli rRNA inh = 1
- Ecoli rRNA inh OD600 = -1
- Ecoli rRNA inh RFP = 0.6

The listing continues:
Results follow in this order: AF4-AF9 inh, Ecoli rRNA inh, Ecoli rRNA inh OD600, Ecoli rRNA inh RFP
CCC(=O)N1[C@H](CO)[C@H](c2ccccc2)[C@@H]1CNC(=O)CN1CCOCC1
 : -2.4, 3, 6, -4.6
C[C@@H]1CN([C@@H](C)CO)C(=O)c2cc(NC(=O)Cc3cn(C)c4ccccc34)ccc2O[C@H]1CN(C)C(=O)Nc1ccc(C(F)(F)F)cc1
 : -1.5, -3, 0, 3.0
O=c1[nH]cnc2nn(C3OC(CO)C(O)C3O)nc12 (configuration not stated)
 : 0.8, 4, 5, 1.4
Nc1[nH]c(C(=O)c2ccccc2)c(-c2ccccc2C(F)(F)F)c1C(=O)NCc1ccc(F)cc1
 : -3.2, 11, 8, 5.1
CC(=O)c1ccc(N2CCN(S(=O)(=O)c3ccc4c(c3)CCC(=O)N4)CC2)cc1
 : -7.4, 5, 4, 1.3
O=C(C[C@H]1CC[C@@H]2[C@H](COC[C@H](O)CN2Cc2ccc(Oc3ccccc3)cc2)O1)N1CCCCC1
 : 3.6, -37, -60, -5.4
Cc1cccc(S(=O)(=O)N2C[C@H]3[C@@H](c4ccccc42)[C@@H](CO)N3C(=O)C2CC2)c1
 : -0.6, -1, 1, 11
COCC(=O)Nc1ccc2c(c1)C(=O)N(C)C[C@@H](OC)[C@@H](C)CN(C(=O)c1ccccc1)[C@@H](C)CO2
 : -1.0, 3, -1, -1.5
CCN1[C@@H]2c3ccc(-c4cccc(F)c4)c(=O)n3C[C@@H]2[C@@H](CO)[C@@H]1C(=O)N[C@@H](C)c1ccccc1
 : 1.2, -9, -23, -0.7
C[C@H]1CN([C@@H](C)CO)C(=O)c2cccc(NC(=O)Nc3ccccc3)c2O[C@@H]1CN(C)C(=O)Nc1cccc2ccccc12
 : -2.2, 0, 4, -1.1
C[C@@H]1CN([C@@H](C)CO)S(=O)(=O)c2ccc(C#CCC3CCCC3)cc2O[C@H]1CN(C)C(=O)c1ccccn1
 : 4.9, -8, -39, 9.2
C[C@H](CO)N1C[C@H](C)[C@@H](CN(C)C(=O)CCCN(C)C)OCCCC[C@H](C)Oc2ccc(NS(C)(=O)=O)cc2C1=O
 : -25, 2, 3, -5.0
O=C(O)c1cc2cc(Cl)ccc2[nH]1
 : -0.5, -7, -4, -0.1
CN(C)C(=O)c1cccc(-c2ccc3c(c2)[C@@H]2[C@@H](CCN2C(=O)C2CC2)[C@H](CO)N3)c1
 : -1.1, 2, 4, 1.8
COc1ccc(CN2CC3(CN(C(=O)Cc4ccncc4)C3)c3c([nH]c4cc(OC)ccc34)[C@@H]2CO)cc1
 : 0.7, -3, 11, 1.1

Following part:
| smiles | AF4-AF9 inh | Ecoli rRNA inh | Ecoli rRNA inh OD600 | Ecoli rRNA inh RFP |
| --- | --- | --- | --- | --- |
| CC(=O)C[C@@H]1OC[C@H](CO)N1S(=O)(=O)c1ccc(C)cc1 | -2.3 | 4 | 15 | -1.2 |
| COc1ccc(C#Cc2ccc3c(c2)[C@@H]2[C@@H](CCN2C(=O)c2cnccn2)[C@@H](CO)N3)cc1 | -2.3 | -8 | 12 | 0.3 |
| O=C(N[C@@H]1CC[C@@H](CCNC(=O)C2CCOCC2)O[C@H]1CO)c1ccccn1 | -0.1 | -1 | 2 | -0.1 |
| COc1cccc(NC(=O)CN(C)C(=O)c2cc(Cl)nc3ccccc23)c1 | 2.3 | 6 | 7 | 0.7 |
| CCCN1CCC2(CC1)CN(Cc1ccc3c(c1)OCO3)[C@H](CO)c1[nH]c3cc(OC)ccc3c12 | 30* | -6 | -3 | -0.3 |
| O=C(C1CCOCC1)N1CC[C@@H]2[C@@H](CO)Nc3ccc(-c4cccc(F)c4)cc3[C@@H]21 | -7.0 | -1 | -7 | -1.6 |
| O=C1NC[C@H](Cc2ccc(O)cc2)N(C[C@@H]2CCCN2C[C@H](Cc2ccccc2)N2C[C@H](Cc3ccc(O)cc3)N(CC3CCCCC3)C(=O)C2=O)C1=O | -0.9 | -21 | -25 | -6.3 |
| C[C@H](O)C#Cc1ccc2c(c1)O[C@@H](CN(C)C(=O)CN(C)C)[C@H](C)CN([C@H](C)CO)S2(=O)=O | -2.3 | -1 | 7 | -1.7 |
| C[C@H]1CN([C@@H](C)CO)S(=O)(=O)c2ccc(C#Cc3ccccc3)cc2O[C@@H]1CN(C)C(=O)Nc1ccc2c(c1)OCO2 | 5.7 | 0 | 0 | -0.7 |
| O=C(C[C@@H]1C=C[C@@H](NC(=O)C2CC2)[C@H](CO)O1)NC1CCC1 | 0.3 | 1 | 6 | -1.4 |
| C[C@@H]1CN([C@@H](C)CO)C(=O)Cc2cc(N(C)C)ccc2O[C@@H]1CN(C)C(=O)Nc1cccc2ccccc12 | -3.9 | 3 | 12 | 0.6 |
| CN1c2ccc(-c3cccc(F)c3)cc2[C@@H]2[C@@H](CCN2C(=O)C2CCC2)[C@@H]1CO | 23 | -44 | -67 | -1.7 |
| C[C@@H](NC(=O)C[C@H]1C=C[C@H](NC(=O)C2CCOCC2)[C@@H](CO)O1)c1ccccc1 | -1.2 | 1 | -5 | 1.5 |
| O=C(c1ccc(F)cc1)N1CC(=O)N2[C@H](C1)[C@H](c1ccc(C#CC3CCCC3)cc1)[C@@H]2CO | 2.3 | -33 | -64 | 14 |
| O=C(c1ccccc1F)N1CC(=O)N2[C@H](C1)[C@@H](c1ccc(C#Cc3ccccc3)cc1)[C@@H]2CO | -2.0 | -7 | -43 | 19 |
| CC(C)c1ccc(C(=O)N2CCCC(c3cc(C(=O)NCc4ccccc4)no3)C2)cc1 (configuration not stated) | -0.7 | 0 | -10 | 0.9 |
| CO[C@H]1CN(C)C(=O)c2cc(NC(=O)C3CCC3)ccc2OC[C@H](C)N(C(=O)NC(C)C)C[C@@H]1C | 2.7 | -5 | -14 | 1.7 |
| C[C@@H]1CN([C@H](C)CO)C(=O)c2cc(NC(=O)Nc3ccccc3)ccc2O[C@@H]1CN(C)Cc1ccccc1 | 4.0 | 1 | -6 | 4.3 |
| O=C(C[C@H]1CC[C@H]2[C@@H](COC[C@@H](O)CN2S(=O)(=O)c2cccc(Cl)c2)O1)NC1CCC1 | 9.6 | -3 | -7 | -0.4 |
| CC(C)NC(=O)NCC[C@H]1CC[C@@H](NS(=O)(=O)c2ccc(-c3ccccc3)cc2)[C@@H](CO)O1 | 5.5 | -4 | -7 | 0.0 |
| C[C@@H]1CN([C@@H](C)CO)C(=O)c2cc(C#CC3CCCC3)cnc2O[C@H]1CN(C)C(=O)C1CC1 | 0.5 | -4 | -12 | -2.5 |
| CO[C@@H]1CN(C)C(=O)c2ccc(NC(=O)c3cccc(F)c3)cc2OC[C@H](C)NC[C@H]1C | -3.5 | 3 | -4 | -1.0 |
| CN1C(=O)c2cc(NC(=O)c3ccc(F)c(F)c3)ccc2OC[C@H]2O[C@@H](CC(=O)N[C@H]3CCN(Cc4ccccc4)C3)CC[C@@H]21 | 13 | -2 | 4 | 0.7 |
| C[C@H]1CN([C@@H](C)CO)C(=O)CCCn2nncc2CO[C@H]1CN(C)S(=O)(=O)c1cccc(C#N)c1 | 0.6&-0.6 | 0&0 | 2&10 | -0.5&5.1 |
| C[C@H]1CN([C@@H](C)CO)C(=O)c2cc(NS(=O)(=O)c3ccc(F)cc3)ccc2O[C@@H]1CN(C)Cc1ccc(Oc2ccccc2)cc1 | 2.6 | 2 | -9 | 2.9 |
| O=C(Nc1ccc(F)cc1)N[C@H]1CC[C@@H](CC(=O)N2CCOCC2)O[C@H]1CO | -2.3 | 1 | 5 | -1.1 |
| Cc1ccc(S(=O)(=O)N[C@H]2CC[C@H](CCNS(=O)(=O)Cc3ccccc3)O[C@@H]2CO)cc1 | 0.6 | -5 | -6 | 4.3 |

Assay outcomes: PubChem, Broad Institute
